Source: PubChem
Autofluor counter: counter-screen for toxin protease inhibitors: compound fluorescence; compound autofluorescence counterscreen, microsphere flow cytometry; hits give high values; fluorescence intensity (concentration not given with the values); 360,000 compounds, 3.1% hits;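 active = at least 3 SD above the mean of all compounds, about 16000 in these data; inconclusive = too few beads counted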;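 note: 100 nL of 1 mM stock went into each well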
BJeLR viability: kills HRASV12-expressing BJeLR cells; BJeLR (HRASV12) viability, CellTiter-Glo ATP luminescence, 48 h; reference of the scale not given here; AID 1554; 300,000 compounds, 0.17% hits; inhibition, % (no concentration beside the values);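 active = replicate mean above 50%; inconclusive = above 50% but judged a plate artefact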;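 note: 50 nL library stock added to about 25 µL; numbers are from one replicate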
Sa RN4220 lethal: kills Staphylococcus aureus RN4220 | 330,000 compounds, 0.33% hits | inhibition, % (concentration not given with the values) | S. aureus RN4220 growth, OD600, 16 h | AID 1259311;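 active = z-score of -3 or lower and OD600 up to 0.18 on both plates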;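 note: plate controls were untreated cells for no effect and reference antibiotic for full effect; stock transfer was 100 nL into about 80 µL; one replicate is shown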
Mtb hypoxia rep: reduces hypoxia-regulated biosensor signal in M. tuberculosis | M. tuberculosis hypoxia-regulated fluorescent reporter, fluorescence | fluorescence inhibition, % (no concentration beside the values) | 300,000 compounds, 0.1% hits;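 active = 35 to 45% if threefold the growth effect, above 45% if 1.5-fold the growth effect; inactive = the rest, general growth blockers included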;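 note: wells of about 50 µL received 100 nL stock; 0% = vehicle wells and 100% = reference inhibitor wells; whole bacteria with a GFP reporter of the hypoxia response; strong numbers were not always called active; many hits fall short of the cut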
ugtP null kill: compounds lethal to S. aureus RN4220 ugtP deletion mutant; 330,000 compounds, 0.54% hits; AID 1259309; OD600 growth, 16 h; some inactives read as strong as hits; growth inhibition, % (no concentration beside the values);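 active = z-score under -3 and OD600 up to 0.15 on both plates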;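 note: plate controls were untreated wells for no effect and antibiotic for full effect; wells of about 80 µL received 100 nL stock; the first replicate is given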
PrP 5UTR inh: inhibition of PrP 5' UTR reporter expression | 340,000 compounds, 0.35% hits | inhibition, % (concentration not given with the values) | cell-based PrP 5' UTR mRNA reporter, plate reader | AID 488862;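 active = every replicate at 50% or more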;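 note: 0 = median of the neutral control wells; tested in H4 reporter cells; numbers are from one replicate; inactives centre near -14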
Mtb hypoxia rep growth: also measured in Mtb hypoxia rep; calls as there; growth inhibition, %; measured here: M. tuberculosis growth (absorbance);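 0% = vehicle and 100% = reference antibiotic; read after six days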
The depositor's hits bear a star; ? = inconclusive; / = not tested or not shown.

SMILES	Autofluor counter	BJeLR viability	Sa RN4220 lethal	Mtb hypoxia rep	Mtb hypoxia rep growth	ugtP null kill	PrP 5UTR inh
Cc1ccc2[nH]c(=O)c(CN(Cc3cccnc3)Cc3nnnn3CC3CCCO3)cc2c1 (configuration not stated)	4625	-6	3.3	1	-3	0	-7
COc1ccc(C=NNC2=NS(=O)(=O)c3ccccc32)cc1OC	/	/	0.4	3	2	5	/
O=S(=O)(c1cccc(-c2nc3ccccc3s2)c1)N1CCOCC1	?	-3	6.7	-4	6	5	-18
CCOc1ccc(N2CC(C(=O)Nc3ncccc3C)CC2=O)cc1 (configuration not stated)	2800	0	-2.1	5	10	5	-22
COCc1cc(C)n(CC(=O)Nc2ccc3c(c2)OCO3)c(=O)c1C#N	5542	5	-2.0	-5	11	-2	2
O=C(NC(=S)NCCc1ccccc1)c1ccccc1	10551	-3	-2.2	-2	2	-25	-31
CC(=NNC(=O)CSc1nc2ccccc2o1)c1ccco1	3973	/	-2.3	6	-4	-1	-46
O=C(N/N=C/c1ccccc1)c1n[nH]c2c1CCCC2	2113	6	/	/	/	/	-10
COc1ccc(CCNc2nc(C)nc3c2nnn3Cc2ccccc2)cc1	3622	-5	-0.2	14	17	8	-8
N#Cc1ccccc1NC(=O)c1ccc2c(Cl)c3c(nc2c1)CCCC3	7981	0	12	5	-1	-7	-42
O=C(NCCCn1ccnc1)c1cc(S(=O)(=O)N2CCOCC2)c(Cl)cc1Cl	3906	4	-1.1	/	/	5	-7
CCC(=O)N1CCc2cc(Br)cc(S(=O)(=O)NCC3CCCN3CC)c21 (configuration not stated)	3875	2	1.6	8	11	-7	-10
CCCCc1nc2ccccc2c(=O)n1NC(=O)c1c(O)c2cccc3c2n(c1=O)CC3	3137	0	1.0	5	6	-11	-13
O=C(Nc1ccccc1-c1nc2ccccc2s1)C1=COCCO1	2791	10	-4.6	1	0	-18	-3
O=C(/C(=C(\[O-])c1ccccc1)[n+]1ccc2ccccc2c1)c1ccc(Cl)cc1	3301	4	2.9	6	8	5	-15
CC(C)c1ccccc1NC(=O)COC(=O)c1c2c(nc3ccccc13)CCN(Cc1ccccc1)C2	4590	-6	1.3	2	-4	-10	-15
CC(C)(C)c1ccc(/C=C/C(=O)NC2CCS(=O)(=O)C2)cc1 (configuration not stated)	3267	-9	4.1	15	7	1	-12
C[C@@H]1C(=O)O[C@@H]2[C@H](O)C34[C@H]5C[C@@H](C(C)(C)C)C36[C@H](OC(=O)[C@@H]6O)OC4(C(=O)O5)[C@@]12O (some centres not stated)	3964	4	/	/	/	/	-4
CCN(CC(=O)NCc1cccs1)CC(=O)Nc1ccccc1C	6157	/	-2.1	0	5	-4	-23
Cc1c(NC(=O)COC(=O)c2cc3c4ccccc4n(C)c3s2)c(=O)n(-c2ccccc2)n1C	3858	-12	0.4	/	/	5	-18
CC(C)Cc1nnc(NC(=O)C2=COCCO2)s1	5107	/	-1.3	1	13	-1	-15
O=C(O)C1CCCCC1C(=O)NC1C2CC3CC(C2)CC1C3 (configuration not stated)	3687	-7	2.6	-1	-5	11	-7
Cc1cccc(CS(=O)(=O)Cc2ccc(C(=O)NCCCN3CCCC3)o2)c1	11485	2	-2.4	2	9	1	-12
CC(C)(C)OC(=O)N1CCC(c2c(C(=O)NCC3CCN(C4CCCC4)C3)cnn2-c2ccc(F)cc2)CC1 (configuration not stated)	4610	8	11	-6	0	7	-19
Cc1cc(-n2c(C)cc(C(=O)CN3C(=O)NC4(CCCC4)C3=O)c2C)no1	10407	7	1.0	-1	8	1	-9
O=C(CSc1cccc[n+]1[O-])N1CCCCCC1	4858	0	12	9	8	3	-15
COc1cc(/C=N/NC(=O)c2c(-c3ccccc3)noc2C)ccc1O	2725	-5	/	/	/	/	-17
Nc1cccc(Cl)c1N1CCOCC1	4132	0	3.6	5	-10	3	-28
COc1cc(CN(CC2CCCO2)C(=O)c2cccs2)cc(OC)c1OC (configuration not stated)	5124	-5	1.7	8	-2	14	-32
CN(C)C(=O)Oc1ccc2nnc3ccnn3c2c1	3633	3	5.8	12	11	20	/
CCOC(=O)c1c(S(=O)(=O)N2CCN(C)CC2)c(C)n(C)c1C	4980	-5	-0.6	11	6	2	-15
CN(c1ccc(OCC(=O)NCc2cccnc2)cc1)S(=O)(=O)c1ccc(Cl)cc1	3372	7	2.5	7	6	4	35
CCC(=O)Nc1ccc(S(=O)(=O)N2CCOCC2)cc1	13187	1	4.3	6	6	3	-31
Cc1nn(C)c(C)c1C=NO	/	/	2.6	0	7	3	/
Cc1ccc(SCC(=O)NC(=O)NCCC(C)C)c(C)c1	3586	-11	2.8	4	-5	5	-15
N#Cc1c2c(c(-n3cnc4ccccc43)n3c1nc1ccccc13)CCC2	3020	-8	-8.1	6	15	-6	-11
COc1cc(C=O)c(Br)cc1OCc1ccc(C)cc1	10494	-7	-1.0	7	13	78	-36
Cc1cnc(C(=O)Oc2c(C)ccc(C)c2C)cn1	3322	6	-3.7	5	7	1	-16
Cc1ccc(-c2cc(-c3ccccc3)nc(N(C)N)n2)cc1	2181	-1	2.2	0	-6	17	16
Cc1nc2c(C)cccc2c2c1CCS2	/	-1	5.4	2	4	8	-14
Cc1ccc(SCc2cc(=O)[nH]c(Nc3nc(C)c4ccccc4n3)n2)cc1	1899	-11	5.7	0	8	18	-9
Cc1ccc(NC(=O)COC(=O)CN2C(=O)c3ccccc3C2=O)cc1S(=O)(=O)N(C)C	4114	-8	5.3	3	-4	-3	-9
COc1cc(NC(=O)C2CCC(=O)N2S(=O)(=O)c2ccc(C)cc2)cc(OC)c1 (configuration not stated)	5091	-7	4.7	10	12	1	-25
C[C@H]1CCC(=O)N([C@H](CC#N)Cc2ccccc2)CC1	4186	12	/	/	/	/	-18
Cc1ccc(N(CC(=O)NCc2ccccc2Cl)S(=O)(=O)c2c(C)noc2C)cc1	5915	10	2.9	1	-2	2	5
Cc1ccc(S(=O)(=O)N2CCN(C(=O)Cn3nc(C)c([N+](=O)[O-])c3C)CC2)cc1	5214	/	-2.0	7	4	-2	-23
Cc1ccc(Nc2nc(Cl)c(C=O)s2)cc1	6027	-2	-2.5	8	4	2	-36
O=C(NCc1cn2ccccc2n1)c1ccc2c(c1)OCO2	5565	/	8.6	12	4	-9	-35
COc1ccc(OC(C)C(=O)Nc2cccnc2)cc1 (configuration not stated)	23006*	-1	2.3	-4	5	-7	-7
COc1ccc(Cc2nc3ccc(C(=O)NCCc4ccccn4)cc3o2)cc1OC	5554	-2	2.3	11	18	6	-3

The results go on:
SMILES	Autofluor counter	BJeLR viability	Sa RN4220 lethal	Mtb hypoxia rep	Mtb hypoxia rep growth	ugtP null kill	PrP 5UTR inh
Cc1cccc(C(=O)N(CCc2ccccc2)Cc2ccccc2)c1[N+](=O)[O-]	5802	-1	0.4	-4	0	-17	-20
CC1CCN(C(=O)CN2C(=O)C(C)(C)Oc3ccc(C(=O)NC4CCCC4)cc32)CC1	8538	9	2.6	7	4	-2	-12
Cc1nc2ccc(NC(=O)c3ccc(Cl)s3)cc2s1	4033	10	0.9	/	/	0	-76
O=C(CNC(=O)c1ccccc1)OC(C(=O)c1ccccc1)c1ccccc1 (configuration not stated)	2528	2	1.8	-7	-6	0	-16
Cc1noc(C)c1S(=O)(=O)Nc1ccccc1N1CCOCC1	5933	-8	7.2	18	7	4	-23
Cc1ccc(NC(=O)CCC(=O)NNC(=O)C(c2ccccc2)c2ccccc2)c(C)c1	16054	2	2.0	3	0	9	-21
Cc1nc2nc(SCC(=O)O)nn2c(C)c1Cc1ccccc1Cl	4223	8	2.1	-2	6	3	-14
O=C(NCc1ccccc1Cl)C1CCN(c2ncnc3c2nc2n3CCCCC2)CC1	6097	-7	-4.6	11	-1	0	-16
COc1ccc(C(=O)NNC(=O)c2ccc(S(=O)(=O)N3CCOCC3)cc2)cc1	4445	-2	-0.3	5	0	2	-14
O=[N+]([O-])c1cc(CSC2=NCCN2)ccc1O	4798	4	2.6	/	/	-3	-5
O=C1NC(=S)NC1=Cc1ccc(O)cc1	4062	/	0.7	12	11	0	-61
COc1cc(OC)c(OC)cc1C=NCC1(c2ccccc2)CCCC1	8692	-1	2.2	12	6	5	-14
O=C(NCc1ccco1)C(c1ccccc1)N(Cc1cccnc1)C(=O)Cn1nnc2ccccc21 (configuration not stated)	5411	1	-2.7	/	/	2	-14
NC(Cc1ccc([N+](=O)[O-])cc1)=NOC(=O)c1ccc2ccccc2c1	/	/	-17	12	9	-19	/
C(=N\Nc1nncc2ccccc12)/c1ccccn1	4339	56*	/	/	/	/	45
CCCCCC(=O)N(Cc1ccccc1)c1c(N)n(CCOC)c(=O)[nH]c1=O	?	3	-0.8	7	-3	5	-8
O=C(CCn1cccn1)N1CCCC(N2CCN(c3cccc(C(F)(F)F)c3)CC2)C1 (configuration not stated)	6484	7	-3.5	-6	2	-2	-7
CN1CCN(S(=O)(=O)c2ccc(N(C)CC(=O)Nc3ccc(F)cc3)nc2)CC1	/	-2	3.9	0	4	2	/
O=S(=O)(c1ccc(Cl)cc1)n1c(Cc2ccccc2)nc2ccccc21	8110	2	3.2	5	1	-4	-47
Cc1cccc(NC(=S)NCCC(C)C)c1	2014	-3	0.7	11	18	7	-4

An excerpt from above in order of SMILES length, ascending.
SMILES	Autofluor counter	BJeLR viability	Sa RN4220 lethal	Mtb hypoxia rep	Mtb hypoxia rep growth	ugtP null kill	PrP 5UTR inh
Cc1nc2c(C)cccc2c2c1CCS2	/	-1	5.4	2	4	8	-14
Cc1ccc(Nc2nc(Cl)c(C=O)s2)cc1	6027	-2	-2.5	8	4	2	-36
O=S(=O)(c1cccc(-c2nc3ccccc3s2)c1)N1CCOCC1	?	-3	6.7	-4	6	5	-18
CC(C)(C)c1ccc(/C=C/C(=O)NC2CCS(=O)(=O)C2)cc1 (configuration not stated)	3267	-9	4.1	15	7	1	-12
CCCCc1nc2ccccc2c(=O)n1NC(=O)c1c(O)c2cccc3c2n(c1=O)CC3	3137	0	1.0	5	6	-11	-13
CC(C)c1ccccc1NC(=O)COC(=O)c1c2c(nc3ccccc13)CCN(Cc1ccccc1)C2	4590	-6	1.3	2	-4	-10	-15

More entries:
SMILES	Autofluor counter	BJeLR viability	Sa RN4220 lethal	Mtb hypoxia rep	Mtb hypoxia rep growth	ugtP null kill	PrP 5UTR inh
CNc1c([N+](=O)[O-])cnn1-c1ccc(Cl)cc1Cl	18639*	-4	1.5	5	8	5	-16
CSCC[C@H](NC(=O)[C@H](Cc1ccccc1)n1c(=O)[nH]c2ccccc2c1=O)C(=O)N1CCC[C@@H]1C(=O)O	5442	6	0.8	/	/	1	-8
N#Cc1cn(-c2ccccc2)nc1-c1ccc2c(c1)OCCO2	4250	-9	-0.1	/	/	-3	-96
COC(=O)/C(=C\C(=O)c1ccccc1)Nc1cccc(C(F)(F)F)c1	4008	5	4.3	5	9	6	-8
CCOc1ccc(/C=C2\SC(N3CCc4ccccc4C3)=NC2=O)cc1	2619	-12	-4.9	1	3	-21	-10
CCCCn1nc(C(=O)NC2=NCCS2)c2ccccc2c1=O	4481	-10	0.5	/	/	-9	-13
CC(C)c1ccc(C(O)P(=O)(OC2CCCCC2)OC2CCCCC2)cc1 (configuration not stated)	4136	1	0.8	-5	3	-16	/
O=C(COc1ccccc1F)NCc1nc2ccccc2[nH]1	2093	-5	-5.3	6	5	-8	-5
O=C1C(NS(=O)(=O)c2ccccc2)=C(N2CCN(c3ccc(F)cc3)CC2)C(=O)c2ccccc21	4697	1	-4.9	-8	-3	-2	-19
NC(=O)CC[C@@H]1NC(=O)[C@H](CO)NC(=O)c2cc([N+](=O)[O-])cc(I)c2NCC[C@@H](C(N)=O)NC1=O	3988	-2	/	/	/	/	4
CCOC(=O)C1=C(COC(=O)CNS(=O)(=O)c2c(F)cc(F)cc2Br)NC(=O)NC1C (configuration not stated)	3950	/	4.3	3	14	3	-10
Cc1ccc(NC(=O)C(C)N2C(=O)c3ccccc3C2=O)nc1 (configuration not stated)	2468	-10	1.4	2	-5	1	7
CCCN(C(=O)COC(=O)CNC(=O)c1ccc2ccccc2c1)c1c(N)n(Cc2ccccc2)c(=O)[nH]c1=O	?	9	-3.0	3	0	10	-17
O=C(NN=Cc1ccccn1)c1cc(-c2cccc3ccccc23)n[nH]1	/	/	8.4	8	18	-16	/
O=C(CSc1nnc(-c2ccc(O)cc2)o1)Nc1ccccc1Br	4896	-1	2.2	6	2	8	-134
